Assay outcomes deposited in PubChem BioAssay by several laboratories.
HIV Env fusion = inhibitors of HIV-1 Env-driven cell-cell fusion, primary screen, HeLa-JRFL effector, CEM21 target cells, luciferase | actives 1.1% (n = 360,000) | AID 651610, 2012 | inhibition, % at 12.3 µM;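 active = mean replicate inhibition score of at least 50 and every replicate individually at or above 50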;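 also: 0% = plate neutral controls and 100% = maraviroc near 300 nM; one replicate is shown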
UUG fidelity = modulators of yeast start codon fidelity, primary screen, whole organism, S. cerevisiae, single point, plate reader. activity score, % at 18.7 µM. S. cerevisiae UUG-firefly luciferase reporter, luminescence/redox ratio. actives 0.13% (n = 350,000). AID 602363, 2012;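 active = replicate mean at a twofold rise or more, about +100% in these data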;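 also: firefly luciferase made from a UUG start codon reports start codon fidelity; reporter light over untreated wells divided by growth signal over untreated wells; some hits fall short of that in this replicate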
Rce1 inhib = yeast Rce1p protease inhibitors, primary screen, biochemical, fluorescence, cell-free homogeneous; CAAX prenyl protease 2 (Saccharomyces cerevisiae (strain ATCC 204508 / S288c)), Q03530; yeast membranes, quenched prenylated peptide cleavage fluorescence; calls only; actives 0.27% (n = 290,000); AID 2563, 2010;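 active = fall in fluorescence gain of 50% or more versus controls, with final raw signal at or below 3038400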;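 also: plate controls were neutral control wells for no effect and wells lacking membranes for full effect; tested at 10 µM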
Target sequence (Q03530 whole entry, looked up): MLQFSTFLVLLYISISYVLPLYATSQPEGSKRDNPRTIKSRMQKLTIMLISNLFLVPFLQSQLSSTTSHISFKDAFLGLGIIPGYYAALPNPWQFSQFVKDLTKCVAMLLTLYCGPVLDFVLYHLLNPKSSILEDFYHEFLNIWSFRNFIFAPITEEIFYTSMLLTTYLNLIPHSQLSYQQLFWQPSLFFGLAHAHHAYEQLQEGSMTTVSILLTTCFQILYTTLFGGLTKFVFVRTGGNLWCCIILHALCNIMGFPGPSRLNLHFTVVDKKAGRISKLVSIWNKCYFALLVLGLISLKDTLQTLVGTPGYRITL
CSC inhib = cancer stem cell viability inhibitors, primary screen, luminescence. inhibition, % at 7.5 µM. cancer stem cell-like cells viability. actives 1.1% (n = 300,000);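 active = mean at 75% or more and at least half the replicates too; tested in HMLE shEcad cells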;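 also: 0% = median of negative and 100% = median of positive control wells; the first replicate is given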
eIF4H FP inh = human eIF4H binding inhibitors, primary screen, translation initiation inhibitor project, biochemical, uHTS, fluorescence polarization. AID 2012, 2009. actives 0.94% (n = 290,000). eIF4H fluorescence polarization binding assay. inhibition, % at 35 µM;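 active = 50% or more with normal probe brightness, or confirmed in later tests; about a fifth of its hits are not listed in these tables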;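 also: calls also rest on retests at 20 µM and on dose response follow-up; 0% = protein and probe with vehicle and 100% = probe without protein; strong numbers were not always called active; many hits fall short of the cut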
MT1-MMP act inh = blockers of MT1-MMP proenzyme processing, primary screen, HT1080 RFP-PRO-GFP cells, GFP/RFP fluorescence | GFP/RFP ratio fluorescence, overnight; percent of plate control window, DMSO zero | actives 0.061% (n = 360,000) | GFP/RFP ratio change, % at 20 µM | Matrix metalloproteinase-14 (Homo sapiens), P50281;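 active = GFP/RFP ratio change of at least 30% with cell ATP level not reduced by more than half and red fluorescence within 50% of control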; also: strong numbers were not always called active
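Read-out: GFP/RFP fluorescence ratio; Test system: RFP-PRO-GFP reporter HT1080 cells; Compound dosing: single-point 20 µM compound, 1% DMSO; Times: overnight compound exposure at 37 °C.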
PABP polyA inh = PABP poly(A) RNA binding inhibitors, primary screen, biochemical, fluorescence polarization, uHTS | Polyadenylate-binding protein 1 (Homo sapiens), P11940 | inhibition, % at 35 µM | actives 1% (n = 290,000) | AID 2014, 2009;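 active = 50% or more with normal probe brightness, or confirmed in later tests; about a fifth of its hits are not listed in these tables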;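 also: calls also rest on retests at 20 µM and on dose response follow-up; controls were probe without protein and protein plus probe with vehicle; some compounds called inactive have numbers as strong as hits; many hits fall short of the cut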
eIF4H FP inh retest = also measured in eIF4H FP inh; calls as there; inhibition, %; compound at 20 µM; confirmation average;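 mean of two retest wells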
PABP polyA inh retest = further read-out of PABP polyA inh, marked with its call; inhibition, %; compound at 20 µM; confirmation repeats;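 mean of two retest wells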
MT1-MMP act inh RFP = second read-out of MT1-MMP act inh, no call of its own (marks repeat the call); RFP signal change, %; measured here: RFP expression control read;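 0 = vehicle wells; hits needed this value within 50% of zero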
Starred values were filed as active, the others as inactive; & = joins results of further samples. A portion of the library; the hit share may differ from the screen's.

The first 2 entries, ahead of the listing:
Results for CC1CN(Cc2nc3c(c(=O)n(C)c(=O)n3C)n2Cc2cccc(Cl)c2)CC(C)O1 (configuration not stated) ?
HIV Env fusion: 8.0; UUG fidelity: 5.8; Rce1 inhib: inactive; CSC inhib: -5.5; eIF4H FP inh: -7.3; MT1-MMP act inh: 5.1; PABP polyA inh: -9.0; MT1-MMP act inh RFP: 3.5

What do the screens show for `CCOc1cc(C(=O)Nc2ncccn2)cc(OCC)c1OCC`?
HIV Env fusion: -107.0; UUG fidelity: -8.4; Rce1 inhib: inactive; CSC inhib: 4.8; eIF4H FP inh: 3.3; MT1-MMP act inh: 9.4; PABP polyA inh: -1.5; MT1-MMP act inh RFP: 6.9

The whole of this part, repeating the preview:
Results for CC1CN(Cc2nc3c(c(=O)n(C)c(=O)n3C)n2Cc2cccc(Cl)c2)CC(C)O1 (configuration not stated) ?
HIV Env fusion: 8.0; UUG fidelity: 5.8; Rce1 inhib: inactive; CSC inhib: -5.5; eIF4H FP inh: -7.3; MT1-MMP act inh: 5.1; PABP polyA inh: -9.0; MT1-MMP act inh RFP: 3.5

What do the screens show for `CCOc1cc(C(=O)Nc2ncccn2)cc(OCC)c1OCC`?
HIV Env fusion: -107.0; UUG fidelity: -8.4; Rce1 inhib: inactive; CSC inhib: 4.8; eIF4H FP inh: 3.3; MT1-MMP act inh: 9.4; PABP polyA inh: -1.5; MT1-MMP act inh RFP: 6.9

Results for CCOc1cc(OCC)nc(S(C)(=O)=O)n1 ?
HIV Env fusion: 17.2; Rce1 inhib: inactive; CSC inhib: -4.6; eIF4H FP inh: -0.3; MT1-MMP act inh: -3.5; PABP polyA inh: 7.8; MT1-MMP act inh RFP: 0.0

How did COc1ccc(-n2nc(C(=O)NCC(=O)NCc3ccco3)c3ccccc3c2=O)cc1Cl do in these assays?
HIV Env fusion: -80.5; UUG fidelity: -15.6; Rce1 inhib: inactive; CSC inhib: -18.1; eIF4H FP inh: -7.6; MT1-MMP act inh: -5.3; PABP polyA inh: 10.4; MT1-MMP act inh RFP: -3.1

What do the screens show for `O=C(CSc1nnc(-c2ccc(OC(F)F)cc2)o1)NCc1cccs1`?
UUG fidelity: -20.8; Rce1 inhib: inactive; CSC inhib: -5.1; eIF4H FP inh: -1.7; MT1-MMP act inh: 2.5; PABP polyA inh: -10.5; MT1-MMP act inh RFP: 1.6

What do the screens show for `CCCC1C2C(=O)N(c3ccccc3)C(=O)C2ON1c1ccccc1` (configuration not stated)?
HIV Env fusion: -40.3; Rce1 inhib: inactive; CSC inhib: -8.4; eIF4H FP inh: -4.5; MT1-MMP act inh: -1.9; PABP polyA inh: 5.1; MT1-MMP act inh RFP: 1.9

What do the screens show for `COC(=O)c1ccc(NC(=O)CSc2nnc(COc3ccc4c(c3)CCCC4)o2)cc1`?
UUG fidelity: -14.0; Rce1 inhib: inactive; CSC inhib: -8.1; eIF4H FP inh: -6.2; MT1-MMP act inh: 6.9; PABP polyA inh: 7.0; MT1-MMP act inh RFP: -0.1

How did COc1ccc(S(=O)(=O)N2CCOC23CCN(S(=O)(=O)c2ccc(Cl)cc2)CC3)cc1 do in these assays?
HIV Env fusion: 11.5; UUG fidelity: 9.9; Rce1 inhib: inactive; CSC inhib: -7.2; MT1-MMP act inh: -4.0; MT1-MMP act inh RFP: -12.0

Results for CCCC(C)C1c2c(c(C)c(C)oc2=O)Oc2c(C)c(C)oc(=O)c21 (configuration not stated) ?
HIV Env fusion: 18.7; UUG fidelity: -2.7; MT1-MMP act inh: 1.0; MT1-MMP act inh RFP: -4.3

How did Cc1n[nH]c2ccc([N+](=O)[O-])cc2c1=O do in these assays?
HIV Env fusion: -1.5; UUG fidelity: -11.1; MT1-MMP act inh: 1.8; MT1-MMP act inh RFP: 0.3

Results for COc1ccc(Nc2nc(N)c([N+](=O)[O-])c(NC3CCCCC3)n2)cc1 ?
HIV Env fusion: -52.6; UUG fidelity: 9.1; Rce1 inhib: inactive; CSC inhib: 100.9*; eIF4H FP inh: -6.3; MT1-MMP act inh: -6.6; PABP polyA inh: 9.6; MT1-MMP act inh RFP: -8.3

How did NC(=O)c1ccc(OCC2CCCO2)cc1 (configuration not stated) do in these assays?
HIV Env fusion: -3.1; UUG fidelity: -16.6; Rce1 inhib: inactive; CSC inhib: 6.5; eIF4H FP inh: 0.7; MT1-MMP act inh: 0.2; PABP polyA inh: 7.3; MT1-MMP act inh RFP: 5.7

What do the screens show for `COc1ccc(CC(=O)OCC(=O)N2CCCc3ccccc32)cc1OC`?
HIV Env fusion: -2.5; Rce1 inhib: inactive; CSC inhib: -1.8; MT1-MMP act inh: 3.9; MT1-MMP act inh RFP: 4.0

How did COc1ccc(C2=CSC3=NCCN23)cc1Br do in these assays?
HIV Env fusion: 16.9; UUG fidelity: -6.9; Rce1 inhib: inactive; CSC inhib: 35.9; MT1-MMP act inh: -5.0; MT1-MMP act inh RFP: -0.8

How did Cc1cc(C)n2nc(C(=O)OCCOc3ccc(F)cc3)nc2n1 do in these assays?
UUG fidelity: -3.9; Rce1 inhib: inactive; CSC inhib: -2.2; eIF4H FP inh: 7.9; MT1-MMP act inh: 0.4; PABP polyA inh: 0.4; MT1-MMP act inh RFP: 4.4

Results for CCCn1cc(S(=O)(=O)CC(=O)NC2CCCCC2)c2ccccc21 ?
HIV Env fusion: 5.7; Rce1 inhib: inactive; eIF4H FP inh: 6.1; PABP polyA inh: -11.3

What do the screens show for `CCOC(=O)c1cnc(SC)nc1NCCOC`?
HIV Env fusion: 8.9; Rce1 inhib: inactive; CSC inhib: 5.9; eIF4H FP inh: 7.3; MT1-MMP act inh: 1.2; PABP polyA inh: -9.3; MT1-MMP act inh RFP: 1.0

How did O=C(CCn1c(=S)oc2ccccc21)NCCC1=CCCCC1 do in these assays?
HIV Env fusion: 0.1; Rce1 inhib: inactive; CSC inhib: -1.4; eIF4H FP inh: -3.3; MT1-MMP act inh: -1.4; PABP polyA inh: -2.6; MT1-MMP act inh RFP: -0.4

What do the screens show for `COc1ccc(NC(=O)c2ccccc2C)cc1`?
HIV Env fusion: -28.8; UUG fidelity: -29.6; Rce1 inhib: inactive; CSC inhib: -14.6; eIF4H FP inh: 10.2; MT1-MMP act inh: 0.0; PABP polyA inh: 7.0; MT1-MMP act inh RFP: 0.8

How did CSc1ccccc1OCc1cc(C(=O)NC2CCOC2)no1 (configuration not stated) do in these assays?
HIV Env fusion: -15.1; UUG fidelity: 12.7; Rce1 inhib: inactive; CSC inhib: -2.7; eIF4H FP inh: 4.0; MT1-MMP act inh: -3.3; PABP polyA inh: 1.3; MT1-MMP act inh RFP: 0.3

What do the screens show for `O=S1(=O)CCN2C=Nc3sc4c(c3C2=N1)CCCC4`?
UUG fidelity: -11.1; Rce1 inhib: inactive; CSC inhib: -8.1; eIF4H FP inh: -7.8; MT1-MMP act inh: -1.4; PABP polyA inh: -5.8; MT1-MMP act inh RFP: 3.2

What do the screens show for `COc1ccccc1NC(=O)CSc1nc2sc(C)c(C)c2c(=O)n1C`?
HIV Env fusion: 8.8; UUG fidelity: -11.5; Rce1 inhib: inactive; CSC inhib: 18.4; eIF4H FP inh: -7.3; MT1-MMP act inh: 5.0; PABP polyA inh: 15.5; MT1-MMP act inh RFP: -11.6

What do the screens show for `COc1ccc2c(c1)OCC(O)(c1ccccc1)C2=O` (configuration not stated)?
HIV Env fusion: -0.2; UUG fidelity: -13.3; MT1-MMP act inh: 3.8; MT1-MMP act inh RFP: 1.7

How did CC(=O)OCC(=O)NCCCOc1cccc(CN2CCCCC2)c1 do in these assays?
HIV Env fusion: 0.2; UUG fidelity: -10.0; Rce1 inhib: inactive; CSC inhib: 1.2; MT1-MMP act inh: 3.3; MT1-MMP act inh RFP: 3.7

What do the screens show for `COc1ccc(-n2nc(C(=O)NCC(=O)NCCC3=CCCCC3)c3ccccc3c2=O)cc1OC`?
HIV Env fusion: 25.3; UUG fidelity: -1.2; Rce1 inhib: inactive; CSC inhib: -17.2; eIF4H FP inh: 5.1; MT1-MMP act inh: -2.8; PABP polyA inh: 6.2; MT1-MMP act inh RFP: -7.6

What do the screens show for `Cc1ccc(-c2c3c(=O)n(C)c(=O)n(C)c3cn2-n2cnnc2)cc1`?
Rce1 inhib: inactive; CSC inhib: -23.8; eIF4H FP inh: -2.0; MT1-MMP act inh: 2.7; PABP polyA inh: -6.0; MT1-MMP act inh RFP: 4.6

Results for CCc1cc2c(Sc3nc4ccccc4s3)ncnc2s1 ?
UUG fidelity: -17.3; Rce1 inhib: inactive; CSC inhib: 22.0; eIF4H FP inh: -0.5; MT1-MMP act inh: 0.2; PABP polyA inh: 1.4; MT1-MMP act inh RFP: 5.0

Results for COc1ccc(OC)c(CCNC(=O)Cn2sc3nc(C)cc(C)c3c2=O)c1 ?
Rce1 inhib: inactive; CSC inhib: 19.9; eIF4H FP inh: 9.3; PABP polyA inh: -3.9

Results for CCOC(=O)N1CCN(S(=O)(=O)N2CCCC(C(=O)NCc3ccccc3OC)C2)CC1 (configuration not stated) ?
HIV Env fusion: -7.2; UUG fidelity: -10.0; Rce1 inhib: inactive; CSC inhib: -9.3; eIF4H FP inh: -6.8; MT1-MMP act inh: 2.3; PABP polyA inh: -8.4; MT1-MMP act inh RFP: -1.8

Results for Cc1ncc(CO)c(/C=N/NC(=S)Nc2ccc(F)cc2)c1O ?
HIV Env fusion: 13.2; Rce1 inhib: inactive; eIF4H FP inh: -3.8; MT1-MMP act inh: 4.4; PABP polyA inh: -2.9; MT1-MMP act inh RFP: 3.1

How did CC(=O)c1cccc(NC(=O)c2sc3nc4n(c(=O)c3c2C)CCCCC4)c1 do in these assays?
HIV Env fusion: -6.1; UUG fidelity: 5.0; Rce1 inhib: inactive; CSC inhib: 37.9; MT1-MMP act inh: 2.5; MT1-MMP act inh RFP: -2.5

Results for COc1ccc(C)cc1NS(=O)(=O)c1ccc2c(c1)n(C)c(=O)n2C ?
HIV Env fusion: -25.6; UUG fidelity: 4.7; Rce1 inhib: inactive; CSC inhib: -10.5; eIF4H FP inh: -2.9; MT1-MMP act inh: 0.1; PABP polyA inh: 12.1; MT1-MMP act inh RFP: -1.0

How did CN(C)/C=C(/C(=O)c1ccc(Cl)cc1)S(=O)(=O)c1ccc(Cl)cc1 do in these assays?
HIV Env fusion: -62.6; UUG fidelity: -3.2; Rce1 inhib: inactive; CSC inhib: -10.2; eIF4H FP inh: -9.2; MT1-MMP act inh: -2.0; PABP polyA inh: -4.4; MT1-MMP act inh RFP: 4.8

How did O=C(CSc1nc2ccccc2c(=O)n1-c1ccc(OC(F)F)cc1)NCc1cccs1 do in these assays?
HIV Env fusion: 4.2; UUG fidelity: -6.3; Rce1 inhib: inactive; CSC inhib: 5.0; eIF4H FP inh: -1.5; MT1-MMP act inh: 0.4; PABP polyA inh: 1.1; MT1-MMP act inh RFP: 0.4

Results for CCN1CCN(CC(O)COc2ccc(C)c(C)c2)CC1 (configuration not stated) ?
UUG fidelity: 6.6; Rce1 inhib: inactive; CSC inhib: 7.0; eIF4H FP inh: 57.5; MT1-MMP act inh: 0.3&7.5; PABP polyA inh: 23.3; eIF4H FP inh retest: 1.1; PABP polyA inh retest: 2.3; MT1-MMP act inh RFP: 2.4&11.3
